# Screening data: PubChem BioAssay, Broad Institute
# UUG fidelity – modulators of start codon recognition fidelity in yeast | S. cerevisiae UUG-firefly luciferase reporter, luminescence/redox ratio | activity score, % at 18.7 µM | 350,000 tested, 0.13% active | AID 602363;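 active = replicate mean at a twofold rise or more, about +100% in these data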;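 note: firefly luciferase made from a UUG start codon reports start codon fidelity; reporter light over untreated wells divided by growth signal over untreated wells; some hits fall short of that in this replicate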
# Env fusion inh – HIV envelope-mediated fusion inhibition; AID 651610; 360,000 tested, 1.1% active; HeLa-JRFL Env/CEM21 cell fusion, luciferase; inhibition, % at 12.3 µM;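 active = mean replicate inhibition score of at least 50 and every replicate individually at or above 50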;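 note: 0% = plate neutral controls and 100% = maraviroc near 300 nM; one replicate is shown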
# * hit, by the source's call; [ ] = dose if it differs, or a comment. Not all compounds are listed; rates above refer to the full screens.
SMILES,UUG fidelity,Env fusion inh
C[C@H](CO)N1C[C@H](C)[C@H](CN(C)Cc2ccc3c(c2)OCO3)OCCCC[C@H](C)Oc2ccc(NC(=O)C3CCCCC3)cc2C1=O,16,-148[16.7 µM]
COc1ccc(NC(=O)Nc2ccc3c(c2)C(=O)N([C@H](C)CO)C[C@@H](C)[C@H](CN(C)C(=O)Nc2ccccc2)O3)cc1,12,7[16.7 µM]
CCCN(C)C[C@H]1Oc2cc(-c3cccnc3)ccc2S(=O)(=O)N([C@@H](C)CO)C[C@H]1C,-5,-17[16.7 µM]
CC(=O)N[C@H]1CC[C@@H](CCNC(=O)C2CCCC2)O[C@H]1CO,-12,-1[16.7 µM]
CCNC(=O)C[C@@H]1CC[C@H]2[C@@H](COc3ccc(NC(=O)Nc4c(C)noc4C)cc3C(=O)N2C)O1,4,-34[16.7 µM]
C[C@H]1CN([C@@H](C)CO)S(=O)(=O)c2ccc(C#CC3CC3)cc2O[C@@H]1CN(C)C(=O)C1CC1,7,-7[16.7 µM]
O=S(=O)(N[C@@H]1CC[C@@H](CCn2cc(-c3ccccc3F)nn2)O[C@@H]1CO)c1ccc(F)cc1,17,17[16.7 µM]
COc1ccccc1-c1cnc2c(c1)C(=O)N([C@H](C)CO)C[C@H](C)[C@@H](CN(C)CC1CCCC1)O2,-3,-9[16.7 µM]
CC(=O)N(C)C[C@H]1Oc2cc(C#CC3(O)CCCC3)ccc2S(=O)(=O)N([C@@H](C)CO)C[C@H]1C,0,-9[16.7 µM]
CCCN(C)C[C@H]1Oc2cc(C#Cc3ccccc3F)ccc2S(=O)(=O)N([C@@H](C)CO)C[C@H]1C,17,-11[16.7 µM]
C[C@@H]1CN([C@@H](C)CO)C(=O)c2cc(C3=CCCCC3)cnc2O[C@@H]1CN(C)Cc1cccnc1,1,2[16.7 µM]
C[C@@H]1CN([C@H](C)CO)C(=O)c2cc(-c3cccc(F)c3)cnc2O[C@H]1CN(C)S(C)(=O)=O,2,14[16.7 µM]
Cc1noc(C)c1NC(=O)Nc1ccc2c(c1)C(=O)N([C@H](C)CO)C[C@@H](C)[C@H](CN(C)C(=O)Nc1ccc(C(F)(F)F)cc1)OCCCC[C@@H](C)O2,7,-83[16.7 µM]
C[C@@H]1CCCCO[C@H](CN(C)C(=O)c2ccccc2)[C@H](C)CN([C@@H](C)CO)C(=O)c2cc(NS(C)(=O)=O)ccc2O1,8,3[16.7 µM]
C[C@@H]1CCCCO[C@H](CN(C)C(=O)Nc2cccc3ccccc23)[C@@H](C)CN([C@@H](C)CO)C(=O)c2cc(NC(=O)c3ccncc3)ccc2O1,0,-21[16.7 µM]

# An excerpt of these results, with two lines to a compound:
# Under each structure: UUG fidelity | Env fusion inh
C[C@H](CO)N1C[C@H](C)[C@H](CN(C)Cc2ccc3c(c2)OCO3)OCCCC[C@H](C)Oc2ccc(NC(=O)C3CCCCC3)cc2C1=O
 : 16 | -148[16.7 µM]
O=S(=O)(N[C@@H]1CC[C@@H](CCn2cc(-c3ccccc3F)nn2)O[C@@H]1CO)c1ccc(F)cc1
 : 17 | 17[16.7 µM]

# The list goes on:
SMILES,UUG fidelity,Env fusion inh
CNC[C@H]1Oc2ncc(C#CCC3CCCC3)cc2C(=O)N([C@H](C)CO)C[C@H]1C,15,15[16.7 µM]
C[C@H]1CCCCO[C@H](CN(C)S(=O)(=O)c2ccc(Cl)cc2)[C@@H](C)CN([C@@H](C)CO)C(=O)c2cc(NC(=O)Nc3ccc(C(F)(F)F)cc3)ccc2O1,-8,29[16.7 µM]
C[C@@H]1CN([C@@H](C)CO)S(=O)(=O)c2ccc(-c3cccc(C(=O)N(C)C)c3)cc2O[C@H]1CN(C)Cc1ccc2c(c1)OCO2,5,-27[16.7 µM]
CCC(=O)N(C)C[C@H]1Oc2cc(C#CCOC)ccc2S(=O)(=O)N([C@H](C)CO)C[C@@H]1C,5,-18[16.7 µM]
COCC#Cc1cnc2c(c1)C(=O)N([C@@H](C)CO)C[C@H](C)[C@H](CN(C)C(=O)Nc1cccc(F)c1)O2,16,9[16.7 µM]
CNC[C@@H]1OCCCC[C@@H](C)Oc2ccc(NC(=O)c3ccccc3)cc2C(=O)N([C@H](C)CO)C[C@H]1C,15,11[16.7 µM]
COc1cccc(NC(=O)N[C@@H]2C=C[C@H](CC(=O)NCc3ccccn3)O[C@H]2CO)c1,-13,-8[16.7 µM]
N#C[C@H]1[C@H](c2ccc(-c3ccccc3F)cc2)[C@@H](CO)N1C(=O)c1ccccn1,-2,8[16.7 µM]
COCC#Cc1ccc2c(c1)O[C@H](CN(C)C(=O)c1ccccc1)[C@H](C)CN([C@@H](C)CO)S2(=O)=O,5,-4[16.7 µM]
COc1cccc(NC(=O)Nc2ccc3c(c2)C(=O)N(C)C[C@@H](OC)[C@H](C)CN[C@H](C)CO3)c1,14,15[16.7 µM]
Cc1ccc(S(=O)(=O)Nc2ccc3c(c2)C(=O)N([C@@H](C)CO)C[C@@H](C)[C@H](CN(C)C(=O)NC(C)C)OCCCC[C@@H](C)O3)cc1,4,-39[16.7 µM]
CNC[C@@H]1OCCCC[C@H](C)Oc2ccc(NC(=O)Nc3ccc(F)cc3)cc2C(=O)N([C@@H](C)CO)C[C@@H]1C,22,7[16.7 µM]
CC(C)NC(=O)N[C@@H]1CC[C@H](CC(=O)NCCN2CCCC2)O[C@H]1CO,-6,-13[16.7 µM]
C[C@@H]1CCCCO[C@H](CN(C)Cc2ccc(C(=O)O)cc2)[C@H](C)CN([C@@H](C)CO)C(=O)c2cc(NC(=O)CCCN(C)C)ccc2O1,-7,-10[16.7 µM]
COc1ccc(S(=O)(=O)N(C)C[C@@H]2Oc3ncc(C#Cc4cccc(F)c4)cc3C(=O)N([C@H](C)CO)C[C@@H]2C)cc1,-7,-11[16.7 µM]
C[C@H]1CN([C@@H](C)CO)C(=O)c2cccc(NS(=O)(=O)c3cn(C)cn3)c2O[C@H]1CN(C)S(=O)(=O)c1ccc(Cl)cc1,-7,5[16.7 µM]
C[C@@H]1CN([C@@H](C)CO)C(=O)Cc2cc(NC(=O)Nc3ccc(C(F)(F)F)cc3)ccc2O[C@@H]1CN(C)S(=O)(=O)c1cn(C)cn1,-5,11[16.7 µM]
C[C@@H]1CN([C@@H](C)CO)C(=O)c2cc(NC(=O)Nc3ccccc3)ccc2O[C@@H]1CN(C)C(=O)Nc1cccc2ccccc12,19,25[16.7 µM]
COCC(=O)Nc1ccc2c(c1)OC[C@@H](C)N(CCc1ccccc1)C[C@@H](C)[C@H](OC)CN(C)C2=O,-3,-3[16.7 µM]
COc1ccc(S(=O)(=O)Nc2ccc3c(c2)C(=O)N([C@H](C)CO)C[C@H](C)[C@H](CN(C)S(=O)(=O)c2cn(C)cn2)OCCCC[C@H](C)O3)cc1,-4,-4[16.7 µM]
C[C@@H]1CN([C@@H](C)CO)C(=O)c2cc(C3=CCCC3)cnc2O[C@H]1CN(C)C(=O)C1CCCCC1,0,-14[16.7 µM]
C[C@H]1CN([C@@H](C)CO)C(=O)c2cccc(NS(=O)(=O)c3ccccc3)c2O[C@@H]1CN(C)Cc1ccc(C(=O)O)cc1,-17,-16[16.7 µM]
CCCNC(=O)C[C@@H]1CC[C@@H]2[C@@H](COc3ccc(NC(=O)C4CCOCC4)cc3C(=O)N2C)O1,-5,16[16.7 µM]
CO[C@@H]1CN(C)C(=O)c2ccc(NC(=O)Nc3cccc(F)c3)cc2OC[C@H](C)N(C)C[C@H]1C,-10,-7[16.7 µM]
COc1ccccc1CN1C[C@@H](C)[C@@H](OC)CN(C)C(=O)c2ccc(NC(C)=O)cc2OC[C@@H]1C,-5,-25[16.7 µM]
C[C@@H]1CN([C@H](C)CO)C(=O)Cc2cc(NC(=O)Cc3cn(C)c4ccccc34)ccc2O[C@@H]1CN(C)Cc1ccc(Cl)c(Cl)c1,5,-47[16.7 µM]
C[C@@H]1CCCCO[C@H](CN(C)C(=O)Nc2ccccc2)[C@H](C)CN([C@@H](C)CO)C(=O)c2cc(NC(=O)Nc3ccc4c(c3)OCO4)ccc2O1,4,-5[16.7 µM]
O=C(C[C@H]1CC[C@H](NC(=O)c2ccccc2)[C@@H](CO)O1)NCc1ccncn1,-18,-19[16.7 µM]
C[C@H]1CN([C@@H](C)CO)C(=O)c2cccc(NC(=O)c3ccc(-c4nccs4)cc3)c2O[C@@H]1CN(C)CC1CCCCC1,-9,6[16.7 µM]
CC(C)CC#Cc1ccc2c(c1)O[C@@H](CN(C)Cc1ccccn1)[C@@H](C)CN([C@H](C)CO)S2(=O)=O,-14,13[16.7 µM]

# Filtered by structure, the entries above containing two or more sulfur atoms.
SMILES,UUG fidelity,Env fusion inh
C[C@H]1CN([C@@H](C)CO)C(=O)c2cccc(NS(=O)(=O)c3cn(C)cn3)c2O[C@H]1CN(C)S(=O)(=O)c1ccc(Cl)cc1,-7,5[16.7 µM]
COc1ccc(S(=O)(=O)Nc2ccc3c(c2)C(=O)N([C@H](C)CO)C[C@H](C)[C@H](CN(C)S(=O)(=O)c2cn(C)cn2)OCCCC[C@H](C)O3)cc1,-4,-4[16.7 µM]

# The list goes on:
SMILES,UUG fidelity,Env fusion inh
C[C@H](CO)N1C[C@H](C)[C@H](CN(C)S(=O)(=O)c2ccccc2)OCCCC[C@H](C)Oc2ccc(NC(=O)Nc3ccc4c(c3)OCO4)cc2C1=O,-15,3[16.7 µM]
C[C@@H]1CN([C@@H](C)CO)C(=O)Cc2cc(NS(C)(=O)=O)ccc2O[C@@H]1CN(C)CC1CCCCC1,-7,10[16.7 µM]
C[C@@H]1CN([C@@H](C)CO)C(=O)c2cc(-c3cncnc3)cnc2O[C@@H]1CN(C)C(=O)c1ccccc1F,9,-22[16.7 µM]
CCC(=O)N(C)C[C@@H]1Oc2cc(Br)ccc2S(=O)(=O)N([C@H](C)CO)C[C@H]1C,11,8[16.7 µM]
C[C@@H]1CN([C@H](C)CO)C(=O)c2cccc(NS(=O)(=O)c3ccccc3)c2O[C@H]1CN(C)S(=O)(=O)c1ccc(Cl)cc1,19,3[16.7 µM]
CCCNC(=O)Nc1ccc2c(c1)C(=O)N(C)[C@@H]1CC[C@@H](CC(=O)NCC3CCCCC3)O[C@H]1CO2,7,6[16.7 µM]
COc1ccc(S(=O)(=O)N[C@@H]2CC[C@@H](CC(=O)N3CCc4ccccc4C3)O[C@@H]2CO)cc1,-4,-73[16.7 µM]
CC(C)NC(=O)N(C)C[C@H]1OCCCC[C@@H](C)Oc2ccc(NS(C)(=O)=O)cc2C(=O)N([C@@H](C)CO)C[C@H]1C,-7,-74[16.7 µM]
COc1ccc(CN(C)C[C@H]2Oc3ccc(NC(=O)Nc4ccccc4)cc3C(=O)N([C@H](C)CO)C[C@H]2C)cc1,-4,-3[16.7 µM]
O=C(Nc1ccc(F)cc1)Nc1ccc2c(c1)[C@H]1C[C@@H](CC(=O)N3CCCCC3)O[C@@H](CO)[C@H]1O2,37,41[16.7 µM]
COc1ccc(CN(C)C[C@H]2OCCCC[C@H](C)Oc3ccc(NS(=O)(=O)c4ccc(OC)cc4)cc3C(=O)N([C@H](C)CO)C[C@@H]2C)cc1,17,-23[16.7 µM]
Cc1noc(C)c1S(=O)(=O)Nc1ccc2c(c1)CC(=O)N([C@H](C)CO)C[C@@H](C)[C@H](CN(C)S(=O)(=O)c1cn(C)cn1)O2,5,-16[16.7 µM]
COc1cccc(NC(=O)C[C@@H]2CC[C@H]3[C@@H](COc4ccc(NC(=O)C5CC5)cc4C(=O)N3C)O2)c1,14,30[16.7 µM]
C[C@@H]1CN([C@@H](C)CO)S(=O)(=O)c2ccc(C#CCN(C)C)cc2O[C@@H]1CN(C)C(=O)CN(C)C,6,-21[16.7 µM]
O=C(C[C@H]1C=C[C@@H](NC(=O)Nc2cc(F)ccc2F)[C@@H](CO)O1)NCc1ccccn1,-13,1[16.7 µM]
COCC(=O)Nc1ccc2c(c1)C(=O)N(C)C[C@@H](OC)[C@H](C)CN(CCc1ccccc1)[C@H](C)CO2,-8,-7[16.7 µM]
Cc1ccc(S(=O)(=O)Nc2cccc3c2O[C@@H](CN(C)S(=O)(=O)c2cn(C)cn2)[C@@H](C)CN([C@@H](C)CO)C3=O)cc1,-16,-6[16.7 µM]
O=C(N[C@@H]1CC[C@@H](CCNC(=O)C2CCCCC2)O[C@H]1CO)c1ccncc1,-15,17[16.7 µM]
C[C@@H]1CN([C@@H](C)CO)S(=O)(=O)c2ccc(-c3ccccc3F)cc2O[C@H]1CN(C)Cc1cncnc1,-8,9[16.7 µM]
COCC(=O)N(C)C[C@@H]1Oc2ncc(C#Cc3cccnc3)cc2C(=O)N([C@@H](C)CO)C[C@@H]1C,-17,0[16.7 µM]
CCCNC(=O)N(C)C[C@@H]1Oc2cc(-c3cccnc3)ccc2S(=O)(=O)N([C@H](C)CO)C[C@H]1C,-1,-12[16.7 µM]
CNC[C@@H]1Oc2cc(-c3ccccc3F)ccc2S(=O)(=O)N([C@H](C)CO)C[C@H]1C,35,9[16.7 µM]
Cc1noc(C)c1S(=O)(=O)Nc1ccc2c(c1)C(=O)N([C@H](C)CO)C[C@H](C)[C@@H](CN(C)C(=O)Cc1ccccc1)OCCCC[C@H](C)O2,16,-112[16.7 µM]
CCCNC(=O)Nc1ccc2c(c1)OC[C@H](C)N(C)C[C@@H](C)[C@H](OC)CN(C)C2=O,12,4[16.7 µM]
CCC(=O)Nc1ccc2c(c1)C(=O)N(C)C[C@H](OC)[C@@H](C)CN(CCc1ccccc1)[C@H](C)CO2,-6,-12[16.7 µM]
COc1ccc(NC(=O)N(C)C[C@H]2OCCCC[C@H](C)Oc3ccc(NC(=O)c4ccccc4)cc3C(=O)N([C@@H](C)CO)C[C@@H]2C)cc1,-2,-12[16.7 µM]

# Part of the list above, with two lines to a compound.
# Values in the order: UUG fidelity	Env fusion inh
COc1ccc(CN(C)C[C@H]2OCCCC[C@H](C)Oc3ccc(NS(=O)(=O)c4ccc(OC)cc4)cc3C(=O)N([C@H](C)CO)C[C@@H]2C)cc1
    17	-23[16.7 µM]
C[C@@H]1CN([C@@H](C)CO)C(=O)c2cc(C3=CCCCC3)cnc2O[C@@H]1CN(C)Cc1cccnc1
    1	2[16.7 µM]
